Compound activity as filed in PubChem.
Vif TR-FRET – inhibitors of Vif binding to APOBEC3G peptide, primary screen, biochemical, TR-FRET, GST-Vif 1-94, biotin-A3G peptide, dose response retest (AID 1117319); one-dose inhibition, %; IC50 in µM for titrated hits; TR-FRET GST-Vif / biotin-A3G peptide binding; higher % means a stronger effect; test concentration not given here; strong numbers were not always called active; Virion infectivity factor (Human immunodeficiency virus type 1 group M subtype B (isolate …; 260,000 tested, 0.57% active;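 active = above the screen mean plus three standard deviations and confirmed in dose response; inconclusive = results disagree or hit not tested in dose response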;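 also: Vif residues 1-94 fused to GST binding biotinylated APOBEC3G peptide 110-148; 0% = full assay without inhibitor and 100% = GST in place of GST-Vif; retest series ran down from 100 µM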
MLL AF4-AF9 inh – inhibitors of AF4 peptide binding to AF9, primary screen, biochemical, AlphaScreen, biotin-AF4 peptide, FLAG-AF9, single point | AID 651704, 2012 | 350,000 tested, 0.47% active | Protein AF-9 (Homo sapiens), P42568 | inhibition, % at 10 µM;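 active = every replicate reaching a set inhibition limit, whatever the replicate mean, cut at about 25% in these data; inconclusive = mean inhibition reaches that limit but some replicates miss it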;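 also: 0% = plate neutral control median and 100% = total signal loss; the record names both 10 and 1 µM as test concentration; the first replicate is given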
FGF22 binding – binders of human FGF22 protein, primary screen, FGF22 synaptogenesis inhibitor project, biophysical, thermal shift, single point. 340,000 tested, 1.5% active. Fibroblast growth factor 22 (Homo sapiens), Q9HCT0. recombinant FGF22 thermal shift, SYPRO orange fluorescence; percent of sucrose octasulfate shift, DMSO zero. calls only at 9.99 µM;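 active = melting point raised past a set limit in the mean and every replicate; inconclusive = no clear call; three in four hits are not shown here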
Target sequence (Q9HCT0 whole entry, looked up): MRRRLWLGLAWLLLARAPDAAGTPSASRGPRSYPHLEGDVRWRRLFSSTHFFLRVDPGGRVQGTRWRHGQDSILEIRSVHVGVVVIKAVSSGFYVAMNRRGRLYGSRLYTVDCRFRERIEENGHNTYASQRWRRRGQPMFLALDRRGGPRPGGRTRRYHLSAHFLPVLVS
Ecoli rRNA inh – reduced GFP signal of wild-type E. coli, primary screen, bacterial rRNA inhibitor project, GFP/RFP fluorescence, OD600, single point; E. coli WT GFP vs humanized-ribosome RFP mutants, 24 h; stronger effect = lower value; DMSO median 0, no signal -100; AID 720706, 2013; GFP signal change (wild-type ribosome), % (no concentration beside the values); 350,000 tested, 1.6% active;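 active = significant combined selectivity score with lowered wild-type GFP, culture density cut under 30%, mutant RFP and density less affected; inactive = any of these conditions unmet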; also: one replicate is shown; some compounds called inactive have numbers as strong as hits
E coli growth – E. coli growth inhibition, primary screen, OD600. Escherichia coli growth, 23 h; stronger effect = lower value. OD600 absorbance (concentration not given with the values). 330,000 tested, 0.21% active;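 active = OD600 absorbance below the run mean of sample wells minus 3.6 SD, in any replicate, cut at about 0.56 in these data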;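 also: stock transfer was 300 nL into about 60 µL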
HNF4A DNA FP – change in binding of human HNF4A to DNA, primary screen, biochemical, fluorescence polarization, FITC-DNA; Hepatocyte nuclear factor 4-alpha (Homo sapiens), P41235; activity change, % at 10 µM; 360,000 tested, 0.3% active; 1 h; in the data active = activity change above about 30%, passing the limit was not always enough;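 also: controls were the assay level and a saturating level of protein; the project sought stronger binding though the title names inhibitors; some compounds called inactive have numbers as strong as hits; positive values seem to mean higher polarization but the record does not say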
Target sequence (P41235 whole entry, looked up): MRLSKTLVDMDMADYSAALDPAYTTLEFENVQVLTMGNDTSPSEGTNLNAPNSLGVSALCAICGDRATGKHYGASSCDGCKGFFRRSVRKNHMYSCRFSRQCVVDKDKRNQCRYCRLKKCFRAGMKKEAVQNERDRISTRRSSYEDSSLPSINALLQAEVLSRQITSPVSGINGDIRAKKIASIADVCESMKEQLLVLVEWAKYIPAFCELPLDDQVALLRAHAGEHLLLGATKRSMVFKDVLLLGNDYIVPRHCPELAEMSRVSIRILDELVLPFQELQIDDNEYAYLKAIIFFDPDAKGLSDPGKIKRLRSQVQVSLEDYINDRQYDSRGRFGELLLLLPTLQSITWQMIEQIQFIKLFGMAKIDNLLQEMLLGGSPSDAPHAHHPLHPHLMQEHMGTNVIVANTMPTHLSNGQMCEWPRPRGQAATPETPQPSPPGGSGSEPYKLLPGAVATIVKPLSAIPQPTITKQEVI
ALR H2O2 inh – inhibitors of human ALR sulfhydryl oxidase, primary screen, biochemical, H2O2 detection, HRP-luminol luminescence, single point. purified ALR, DTT oxidation. inhibition, % (test concentration not listed). 290,000 tested, 3.8% active. AID 485317, 2010;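 active = mean and each replicate at 75% or more; inconclusive = only one of the two met; inactive = neither met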;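 also: stock transfer was 7.5 nL into about 7.5 µL; 0% = neutral wells and 100% = wells with inactivated enzyme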
Target sequence (P55789 whole entry, looked up): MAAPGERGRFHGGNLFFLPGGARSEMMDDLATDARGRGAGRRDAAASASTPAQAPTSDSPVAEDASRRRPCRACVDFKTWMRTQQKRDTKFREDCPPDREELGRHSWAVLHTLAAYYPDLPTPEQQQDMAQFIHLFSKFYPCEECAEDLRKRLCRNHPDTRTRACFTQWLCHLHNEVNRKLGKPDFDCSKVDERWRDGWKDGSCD
Ecoli rRNA inh OD600 – recorded beside Ecoli rRNA inh, whose call it bears; OD600 change, %; measured here: OD600 growth;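 optical density of the mix in the first replicate; 0 = DMSO median and -100 = no signal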
Ecoli rRNA inh RFP – recorded beside Ecoli rRNA inh, whose call it bears; RFP signal change, %; measured here: RFP humanized mutant strains;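 first replicate; 0 = DMSO median and -100 = no signal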
* marks the source's active call; other numbers are inactive results; i = inactive; ? = inconclusive; / = no result given; & = joins results of further samples. A portion of the library; the hit share may differ from the screen's.

Order of values: Vif TR-FRET	MLL AF4-AF9 inh	FGF22 binding	Ecoli rRNA inh	Ecoli rRNA inh OD600	Ecoli rRNA inh RFP	E coli growth	HNF4A DNA FP	ALR H2O2 inh
1) COCCc1ccc(OCC(O)CNC(C)C)cc1 (stereo not drawn)
 : -5%	0.3&-0.8&-2.0	i	/	/	/	0.66&0.65&0.68	2.0&-1.6&-1.0	21&-32
2) COc1ccc(CNC(=O)c2cc(C(=O)C3CC3)c[nH]2)cc1
 : -2%	-0.7	i	4	-1	1.1	0.73	3.7	2
3) C=CCc1cccc2cc(C(=O)N3CCOCC3)c(=O)oc12
 : 9%	-1.1	i	2	7	-2.4	0.73	2.4	-5
4) Cn1c(COc2ccc3ccccc3c2)nnc1SCC(=O)O
 : ?	/	/	/	/	/	0.71	-1.5	-13
5) O=C1CC(c2ccco2)CC2=C1C(c1ccccc1)n1nc(C(F)(F)F)nc1N2 (stereo not drawn)
 : 5%	/	/	/	/	/	0.73	-1.6	4
6) COc1ccc(-c2cnc3c(c2)C(=O)N([C@H](C)CO)C[C@H](C)[C@H](CN(C)C(=O)NC2CCCC2)O3)cc1
 : /	-3.5&-4.3	i	1	10	-2.4	/	/	/
7) Cc1ccc2nc(C)cc(C(=O)N3CCCC(N4CCN(c5ccccc5C)CC4)C3)c2c1 (stereo not drawn)
 : /	8.2	i	-40	-75	-6.5	0.71	1.8	5
8) CSC(=Nc1ccc(Cl)cc1)N[n+]1ccccc1
 : /	/	/	/	/	/	0.69	1.4	14
9) COC(=O)c1ccccc1CC1SC(N)=NC1=O (stereo not drawn)
 : /	0.9	i	4	4	-4.4	0.7	-0.3	/
10) CCC(C(=O)NCc1ccccc1OC)n1nc(C)n2c(cc3occc32)c1=O (stereo not drawn)
 : 1%	/	/	/	/	/	0.71	5.8	-6
11) COCCC(=O)N1CCC(Oc2ccc(C(=O)NC3Cc4ccccc4C3)cc2)CC1
 : /	-0.6	i	18	10	1.6	0.66	-0.8	-4
12) CC(C)(C)NC(=O)CSCc1ccc(Br)cc1
 : -8%	-2.1	i	-15	5	6.3	0.72	-0.7	/
13) Cc1nc2ccc(Cl)cc2c(-c2ccccc2Cl)c1CC(=O)O
 : /	/	/	/	/	/	0.63	0.8	-3
14) Cc1ccc(N(C(=O)CNC(=O)c2ccco2)C(C(=O)NCC2CCCO2)c2ccccc2)cc1C (stereo not drawn)
 : /	-1.3	i	-1	5	3.7	0.68	-0.3	15
15) CCCCN1C=CC(=C2C(=O)c3ccccc3C2=O)C=C1
 : -7%	0.6	i	-4	-8	-4.0	0.68	3.5	-4
16) O=C(CCNC(=O)c1ccccc1)OCC(=O)c1ccccc1
 : -4%	-2.7	i	-7	4	-5.4	0.71	-0.4	-3
17) N#C/C(=C\c1cccs1)C(=O)c1ccccc1Cl
 : -9%	-0.7	i	-26	-7	12	0.66	/	/
18) CN(C)CC1CCCCC1OC(=O)c1ccc(Cl)cc1 (stereo not drawn)
 : /	11	i	12	4	-1.6	0.66	5.5	-3
19) COc1ccc2nc3ccccc3[n+]([O-])c2c1
 : -7%	4.5	i	-17	-43	-12	0.7	-105	/
20) COc1cc(CNC2CCCCCCC2)c(Br)cc1OCCO
 : -2%	4.9	i	14	8	0.3	0.65	0.6	2

Carrying on.
Order of values: Vif TR-FRET	MLL AF4-AF9 inh	FGF22 binding	Ecoli rRNA inh	Ecoli rRNA inh OD600	Ecoli rRNA inh RFP	E coli growth	HNF4A DNA FP	ALR H2O2 inh
21) O=C(Nc1cccc(C(=O)O)c1)/C(=C\c1ccccc1)NC(=O)c1ccc(Br)o1
 : /	-1.2	i	-4	-24	-2.0	/	0.1	/
22) COc1ccc(NC(=O)N(C)C[C@H]2Oc3c(NC(=O)c4ccncc4)cccc3C(=O)N([C@H](C)CO)C[C@@H]2C)cc1
 : /	-1.9&-4.4	i	3&-3	4&9	-1.7&0.1	/	1.1	-6
23) C/C=C/c1ccc2c(c1)O[C@@H](CN(C)C(=O)c1cccnc1)[C@H](C)CN([C@H](C)CO)S2(=O)=O
 : /	-4.6	i	-3	1	0.0	/	/	/
24) O=C(O)c1ccc(CN2C[C@@H](CO)O[C@@H](n3cnc4c(N5CCOCC5)ncnc43)C2)cc1
 : /	-1.3	i	12	22	2.0	/	0.1	/
25) CC1CCN(S(=O)(=O)c2ccc(C(C)C)cc2)CC1
 : -5%	-4.7	i	-42	-56	-15	0.7	2.2	-4
26) COc1cc(C(=O)NCc2ccc3[nH]c(C)cc3c2)cc(OC)c1OC
 : /	0.9	i	12	12	11	0.69	-2.4	-1
27) O=C(O)/C=C/C(=O)NCc1csc2ccccc12
 : /	-1.7	i	10	14	0.9	0.63	-3.2	2
28) CCOc1ccc(N(C(C)=O)c2nc(C)cc(C)c2C#N)cc1
 : ?	/	/	/	/	/	0.76	1.2	-7
29) C[C@@H]1CN([C@H](C)CO)C(=O)c2cc(NC(=O)CCCN(C)C)ccc2O[C@@H]1CN(C)Cc1ccccc1
 : /	-0.8	i	7	9	-0.6	/	/	/
30) C=CCNC(=O)CSc1n[nH]c(-c2cc(Cl)ccc2OC)n1
 : 5%	1.3	/	6	-4	2.9	0.68	-1.8	/
31) c1ccc(-c2nc(NCc3ccco3)c3oc4ccccc4c3n2)cc1
 : 3%	/	/	/	/	/	0.77	5.2	-1
32) COC(=O)CSc1n[nH]c(=S)s1
 : 17%	-3.1	i	/	/	/	0.71	3.3	30
33) N#CCC(=O)Nc1nc(-c2ccc3c(c2)OCCO3)cs1
 : -1%	1.4	i	17	16	3.1	0.68	2.9	100*
34) O=C(C[C@@H]1CC[C@H]2[C@@H](COC[C@H](O)CN2CC2CCOCC2)O1)N1CCOCC1
 : /	-11	i	4	9	-3.5	/	/	/
35) CC(=O)NCCn1c(SCC(=O)Nc2ccc(C)cc2)nc2ccccc2c1=O
 : 75%	-1.8	i	7	4	-1.8	0.7	0.7	-4
36) CC(C)[C@@H](CO)NS(=O)(=O)c1ccc(Br)cc1F
 : -1%	-1.0	i	10	9	2.1	0.7	4.0	/
37) O=C1CCC2c3ccc4ccccc4c3CCN12 (stereo not drawn)
 : /	/	/	/	/	/	0.72	4.4	-15
38) COc1ccccc1-c1nnc(NC(=O)c2ccc3c(c2)OCO3)s1
 : -19%	-0.4	i	12	2	-0.6	0.7	-0.5	-4
39) N#CCCN(C(=O)COC(=O)CSc1ccc(Cl)cc1)c1ccccc1
 : /	0.3	i	-5	-2	1.8	0.66	-5.2	-4
40) CCOc1ccc(C(CC(=O)O)NC(=O)COc2ccccc2)cc1 (stereo not drawn)
 : -3%	/	/	/	/	/	0.76	-1.6	-6

Some of these compounds in order of heavy-atom count, high to low.
Order of values: Vif TR-FRET	MLL AF4-AF9 inh	FGF22 binding	Ecoli rRNA inh	Ecoli rRNA inh OD600	Ecoli rRNA inh RFP	E coli growth	HNF4A DNA FP	ALR H2O2 inh
21) O=C(Nc1cccc(C(=O)O)c1)/C(=C\c1ccccc1)NC(=O)c1ccc(Br)o1
 : /	-1.2	i	-4	-24	-2.0	/	0.1	/
38) COc1ccccc1-c1nnc(NC(=O)c2ccc3c(c2)OCO3)s1
 : -19%	-0.4	i	12	2	-0.6	0.7	-0.5	-4
28) CCOc1ccc(N(C(C)=O)c2nc(C)cc(C)c2C#N)cc1
 : ?	/	/	/	/	/	0.76	1.2	-7
25) CC1CCN(S(=O)(=O)c2ccc(C(C)C)cc2)CC1
 : -5%	-4.7	i	-42	-56	-15	0.7	2.2	-4
36) CC(C)[C@@H](CO)NS(=O)(=O)c1ccc(Br)cc1F
 : -1%	-1.0	i	10	9	2.1	0.7	4.0	/

Other structures follow:
Order of values: Vif TR-FRET	MLL AF4-AF9 inh	FGF22 binding	Ecoli rRNA inh	Ecoli rRNA inh OD600	Ecoli rRNA inh RFP	E coli growth	HNF4A DNA FP	ALR H2O2 inh
41) Cc1ccc(NS(=O)(=O)c2ccc(-n3cccn3)cc2)cc1C
 : 10%	0.9	i	4	3	2.9	0.67	0.5	-4
42) CCOC(=O)CC(N)c1ccc2c(c1)OCO2 (stereo not drawn)
 : 0%	/	/	/	/	/	0.7	/	-2
43) CCC(=O)N1CC[C@H]2[C@H](CO)Nc3ccc(-c4ccc(F)cc4)cc3[C@H]21
 : /	-0.5	i	-6	-3	-4.5	/	/	/
44) CCN(CC)c1ccc(/C=N/N=C(c2ccccc2)c2ccccc2)c(O)c1
 : -8%	11	i	16	12	9.1	/	29	-14
45) CCN(CC)S(=O)(=O)c1cccc(C(=O)NC2=NCCS2)c1
 : /	2.0	i	-2	-1	-4.1	0.71	1.6	0
46) O=[N+]([O-])c1ccccc1/C=C/CN1CCN(Cc2ccc3c(c2)OCO3)CC1
 : /	1.8	i	-5	-1	0.1	0.66	-0.5	-12
47) COc1cccc(CNC(=O)COC(=O)c2cc(Br)c(Br)s2)c1
 : -134%	-3.7	i	/	/	/	0.72	-4.7	0
48) CCCCC(O)(CCN1CCOCC1)c1ccc(Cl)cc1 (stereo not drawn)
 : 6%	4.0	i	-10	-18	-3.4	0.64	3.1	-3
49) Cc1cc(C)n(-c2ncccc2[N+](=O)[O-])n1
 : -5%	-0.3	i	3	3	-0.9	0.67	5.1	-2
50) Fc1ccccc1NC(=S)NCCc1ccc(Cl)cc1
 : /	1.2	i	-28	-30	-8.8	0.61	3.5	-1
51) CN1[C@@H]2CN(C(=O)C3CCCCC3)c3ccccc3[C@@H]2[C@@H]1CO
 : /	1.3	i	1	0	3.8	/	/	/
52) C[C@H]1CN([C@@H](C)CO)C(=O)c2cccc(NC(=O)CCCCCC(=O)Nc3ccccc3N)c2O[C@H]1CN(C)CC1CC1
 : /	-0.1	i	7	4	-2.3	/	/	/
53) O=C1c2cccc(OCC(=O)N3CCCc4ccccc43)c2CCN1Cc1ccc(F)cc1
 : /	5.3	i	-24	-35	-1.0	0.66	-1.2	-11
54) OCCNc1nc(-c2ccccc2)c2ccccc2n1
 : 4%	/	/	/	/	/	/	-6.2	-5
55) CCOc1ccc(C(=O)NCC(=O)Nc2ccc(N3CCOCC3)cc2)cc1OCC
 : -2%	-8.5	i	2	7	4.0	0.68	-1.7	6
56) O=C(COC(=O)c1cc(Cl)ccc1[N+](=O)[O-])NCc1ccc(Cl)cc1Cl
 : /	3.7	i	2	2	-7.4	0.69	-0.8	-1
